# TRPML1 agonist: activates the human TRPML1 channel. AID 624414. TRPML1-expressing cells, Ca2+ dye fluorescence, FDSS; host cell line not named in the record; reference of the full effect not given here. activation, % (concentration not given with the values). Q9GZU1. 410,000 compounds, 0.12% hits; in the data active = activation above about 50%; inconclusive = about 30% to 50%; inactive = below about 30%; further: 0% is about no effect; the text of the record puts the active cut at 80%
# Target sequence (Q9GZU1 whole entry, looked up): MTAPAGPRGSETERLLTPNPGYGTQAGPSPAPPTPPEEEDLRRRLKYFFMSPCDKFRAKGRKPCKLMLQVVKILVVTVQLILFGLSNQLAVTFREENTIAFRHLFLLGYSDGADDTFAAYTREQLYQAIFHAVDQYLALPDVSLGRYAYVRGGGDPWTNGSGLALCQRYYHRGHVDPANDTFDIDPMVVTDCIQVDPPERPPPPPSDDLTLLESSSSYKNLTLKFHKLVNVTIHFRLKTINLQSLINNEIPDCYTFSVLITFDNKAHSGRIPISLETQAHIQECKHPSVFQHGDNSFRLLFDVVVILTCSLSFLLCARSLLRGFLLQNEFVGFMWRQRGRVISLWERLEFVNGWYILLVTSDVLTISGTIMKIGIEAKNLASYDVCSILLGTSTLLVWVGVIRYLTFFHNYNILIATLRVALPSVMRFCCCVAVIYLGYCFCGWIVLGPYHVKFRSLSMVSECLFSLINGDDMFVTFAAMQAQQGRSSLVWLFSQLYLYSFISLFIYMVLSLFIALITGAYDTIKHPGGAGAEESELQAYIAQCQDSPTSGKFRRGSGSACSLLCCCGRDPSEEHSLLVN
#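 Tetracycline-induced TRPML1-DL cells are seeded and incubated overnight before loading with a no-wash Ca2+ dye and quencher. Agonist activity is taken from the 110 s fluorescence read following compound pin-transfer on an FDSS, before EC80 54-4 challenge.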
# TRPML1 inh: blocks the human TRPML1 channel; Q9GZU1; TRPML1-inducible cells, Ca2+ dye fluorescence, FDSS; active compounds read low; inhibition of EC80 agonist-evoked calcium signal; activity change, negative = inhibition, % (no concentration beside the values); 390,000 compounds, 0.02% hits; AID 624415; in the data active means activity change below about -50%; inconclusive means about -30% to -50%; inactive means above about -30%;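 further: stimulus is agonist 54-4 at its EC80 concentration; on the % scale 0 is the no-effect control and ±100 the full control effect; compound concentration not given in the record; the text of the record puts the active cut at -80%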
#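 Calcium fluorescence in TRPML1-DL cells induced overnight with Tet: a 110 s read after compound pin addition, then a 110 s antagonist read after challenge with 54-4 at 4 uM final (EC80).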
# ClpP mod: qHTS Assay for Activators of ClpP. purified B. subtilis ClpP, FRET peptide cleavage, 20 min. AID 651965, 2013. ATP-dependent Clp protease proteolytic subunit (Bacillus subtilis (strain 168)), P80244. Potency, µM (highest dose often 57.5 µM), without a hit: at the highest dose activity change, negative = active. 340,000 compounds, 1.9% hits; active = well fitted falling curve with a large enough effect; inconclusive = small, poorly fitted or top-dose-only effect; inactive = no such curve, though single readings can be large or run the other way; further: potency means the concentration at half of the fitted maximal effect; the source files actives as falling curves though it sought activators and does not explain the sign; nearly all actives have a fitted effect of over 65% in size; many hits overshoot -100%
# Target sequence (P80244 whole entry, looked up): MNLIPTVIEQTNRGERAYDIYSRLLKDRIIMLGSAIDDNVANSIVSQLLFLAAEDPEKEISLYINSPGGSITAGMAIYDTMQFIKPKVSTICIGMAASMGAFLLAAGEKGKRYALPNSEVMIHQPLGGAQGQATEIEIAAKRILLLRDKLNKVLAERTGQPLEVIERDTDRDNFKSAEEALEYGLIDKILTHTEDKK
#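 FRET quenching reversal measured ClpP activation: 10 microg/mL B. subtilis ClpP at pH 8 with the FRET-FV decapeptide, read at 430 nm after 320 nm excitation. The 20-min minus 0-min signal was scaled between DMSO/no-enzyme wells and ADEP (5.8 microM final).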
# Menin-MLL FL inh: displaces fluorescein MLL peptide from human menin. Fluorescence polarization, fluorescein-MLL peptide displacement from menin. FP activity change, % at 61.4 µM. 290,000 tested, under 10 active; inconclusive = falling polarisation curve, or a change in total fluorescence; inactive = total fluorescence flat and polarisation flat or rising; no compound was filed as active; the % refers to the polarisation; negative = inhibition;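 further: % of control where 0% means no effect; inhibitors lower the polarisation; unlabelled MLL peptide was the positive control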
# Sfp PPTase inh: inhibitors of Bacillus subtilis Sfp phosphopantetheinyl transferase. Potency, µM, for inactives: max response, negative = inhibition, usual class: inhibitors. AID 1490. 310,000 compounds, 3.5% hits. Biochemical Sfp PPTase activity, qHTS; active means well fitted inhibition curve with a large enough effect; inconclusive means small, poorly fitted or top-dose-only effect, or another doubt; inactive means no such curve, though single readings can be large or run the other way;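 further: the enzyme is Sfp with the accession as filed and its product quenches rhodamine fluorescence; potency means the concentration at half of the fitted maximal effect; 0% = enzyme reaction without inhibitor and -100% = no enzyme wells; top concentration of the series not given in the record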
#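 Sfp 15 nM + cpd, 15 min RT; start w/ rhodamine-CoA 5 uM, BHQ-2-YbbR 12.5 uM (final); 50 mM Hepes pH 7.6, 10 mM MgCl2, 0.01% NP-40, 0.01% BSA; read 525/598 nm at 0 and 30 min.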
# PINK1 modulator: PINK1 expression modulation. Potency, µM (highest dose often 76.6 µM), for the others: at the top dose activation (PINK1 increase), most hits filed as activators. PINK1 immunofluorescence, high-content cytometry, 24 h. AID 624263. 410,000 compounds, 0.2% hits; active = well fitted activation curve with a large enough effect; inconclusive = small, poorly fitted or top-dose-only effect; inactive = flat fitted curve, though single readings scatter; cell line not stated here;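 further: potency means the concentration at half of the fitted maximal effect; % of control where 0% means no effect; nearly all actives have a fitted effect of over 65% in size; a mitochondrial uncoupler was the plate control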
#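 Readout is PINK1 immunofluorescence, quantified alongside mitochondrial, cell and nuclear markers by laser-scanning microplate cytometry. Cells from a stable line were exposed to compound titrations (5 concentrations) for 24 hours, with CCCP controls.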
# TRPV1 potentiator: enhances activation of the human vanilloid receptor TRPV1; AID 540277; Q8NER1; potentiation, % at 8.33 µM; TRPV1-expressing cells, Fluo-8 calcium influx, capsaicin EC20 potentiation; host cell line not named in the record; control for the full effect not named in the record; 320,000 compounds, 0.02% hits; active means potentiation above 80%; inconclusive means 30% to 80%; inactive means below 30%; further: 0% is about no effect
#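 TRPV1-expressing cells were cultured overnight at 35.5C and loaded with Fluo-8 calcium dye for 40 to 90 min at room temperature. After a 10 s baseline, compound was added and calcium influx was read kinetically for 3 min (ex 480/em 520 nm).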
# An asterisk follows results filed as active; ? = inconclusive; / = no result given; [ ] = dose if it differs, or a comment.
# Abbreviations – A = TRPML1 agonist; B = TRPML1 inh; C = ClpP mod; D = Menin-MLL FL inh; E = Sfp PPTase inh; F = PINK1 modulator; G = TRPV1 potentiator
> Cc1ccsc1C(=O)N(C)CC(=O)Nc1ccccc1Br
  A = -0.9; B = -4; C = -3.6%; D = /; E = /; F = -1.5%; G = 0
> CCC(=O)c1cc2c(C)cc(=O)oc2c(C)c1O
  A = -0.8; B = 0; C = -9.1%; D = 5.1; E = 12%; F = -2.6%[38.3 µM]; G = -7
> COc1ccccc1OCC(=O)NCC1CCCCC1
  A = -1.0; B = -10; C = -0.5%; D = 6.4; E = 8%; F = -6.9%[38.3 µM]; G = -14
> C[C@H](NC(=O)C1CC(=O)N(c2ccc3c(c2)OCCO3)C1)C(=O)N1CCCCC1 (some centres undefined)
  A = 0.2; B = -6; C = 1.8%; D = /; E = 5%; F = 0.0%; G = -4
> O=C(COC(=O)Cc1cccc(C(F)(F)F)c1)Nc1ccc2c(c1)OCCO2
  A = 1.5; B = -7; C = 0.1%; D = 4.1; E = -4%; F = 1.0%; G = 2
> COc1ccc(C2N(Cc3ccccc3)CCN2Cc2ccccc2)cc1[N+](=O)[O-]
  A = 0.3; B = 15; C = /; D = -4.4; E = -7%; F = 1.1%; G = 2
> O=C(Nc1ccc(C(=O)N2CCN(c3ccncc3)CC2)cc1)c1ccc(Br)o1
  A = -0.1; B = /; C = 1.6%; D = /; E = /; F = 1.5%; G = /
> Cc1ccc(NC(=O)Cc2sc(C)nc2-c2ccc(C)cc2)cc1
  A = 2.2; B = 21; C = 1.8%; D = 2.7; E = 3%; F = 1.0%; G = -24
> CCN(CC)S(=O)(=O)c1cc(C(=O)Nc2ccc(Cl)cn2)ccc1C
  A = 1.2; B = -1; C = 12%; D = 1.5; E = -5%; F = -1.3%; G = -18
> COc1ccccc1C(=O)NCC1(N2CCN(C)CC2)CCCCC1
  A = 2.8; B = 1; C = -1.3%; D = /; E = /; F = -0.9%; G = /
> CCc1ccccc1S(=O)(=O)Cc1ccc(C(=O)NCCc2ccc(Cl)cc2)o1
  A = 2.2; B = 16; C = -1.3%; D = /; E = /; F = -0.8%; G = /
> CN(C)S(=O)(=O)N1CCN(C(=O)c2ccccc2)CC1
  A = 0.2; B = -4; C = -0.3%; D = 2.6; E = 18%; F = /; G = -2
> O=C(O)CC(Cc1ccc(Cl)cc1)C(=O)Nc1ccccc1 (centres undefined)
  A = -0.5; B = -11; C = -0.3%; D = -1.6; E = 7%; F = -0.5%; G = -8
> CCOC(=O)c1c(C)sc(-c2c(-c3ccc(OC)c(F)c3)[nH]c3c2c(=O)[nH]c(=O)n3C)c1O
  A = 0.5; B = -27; C = -0.2%; D = /; E = /; F = -0.3%; G = /
> CN(C)S(=O)(=O)c1cc(NC(=O)CSc2ncc(C(F)(F)F)cc2Cl)ccc1Cl
  A = 0.4; B = 0; C = -1.6%; D = 3.3; E = -10%; F = 1.4%; G = 29
> COc1ccccc1C(=O)N/C(=C\c1ccccc1)C(=O)NCc1ccco1
  A = -0.8; B = 2; C = /; D = 0.6; E = 12%; F = -2.1%; G = 11
> COc1ccc(CCC(=O)Nc2sccc2C#N)cc1
  A = -0.6; B = 4; C = /; D = ?; E = -26%; F = 7.0%; G = 5
> COc1ccc(Cl)cc1NC(=O)CCc1nnc2ccc(N3CCC4(CC3)OCCO4)nn12
  A = 0.2; B = 9; C = /; D = 0.7; E = 12%; F = 2.8%; G = 15
> COc1cc2cnncc2cc1OC
  A = 0.8; B = 6; C = -4.9%; D = 1.0; E = 16%; F = -0.2%; G = -10
> CS(=O)(=O)c1ccc(Cl)c(NC(=O)CSc2nc3ccccc3c(=O)n2Cc2ccco2)c1
  A = 0.6; B = -5; C = -12%; D = /; E = /; F = 4.7%; G = -1
> Cc1ccc(S(=O)(=O)Nc2cnn(-c3ccccc3)c(=O)c2Cl)cc1
  A = -0.6; B = 20; C = /; D = 2.6; E = ?; F = 0.8%; G = 11
> Cc1cccc(NS(=O)(=O)c2ccc(C3CCCCC3)cc2)n1
  A = -0.5; B = 1; C = 22µM*; D = -2.2; E = -1%; F = -3.6%[38.3 µM]; G = 4
> Cn1c(CSc2ccccc2)c(C#N)c2ccccc21
  A = 3.1; B = 3; C = 0.3%; D = 2.0; E = -16%; F = 8.6%[38.3 µM]; G = -18
> CN1CCN(NC(=O)c2ccc(Br)c(S(=O)(=O)N3CCOCC3)c2)CC1
  A = 0.5; B = -13; C = 0.5%; D = -0.2; E = -13%; F = 1.7%; G = 3
> Nc1ccc(S(=O)(=O)NC2(C(F)(F)F)NC(=O)N(c3cccc(Cl)c3)C2=O)cc1 (centres undefined)
  A = -0.2; B = -8; C = 0.5%; D = /; E = /; F = -1.2%; G = /
> CC(C)N(C(C)C)S(=O)(=O)c1ccc(N2CCc3ccccc3C2)nc1
  A = 1.2; B = 0; C = /; D = -0.6; E = -3%; F = 6.5%; G = 8
> Cc1ccc(N=Cc2c(O)n(-c3cc(Cl)ccc3N3CCOCC3)c(=O)c3ccccc23)cc1C
  A = 0.3; B = 23; C = 0.2%; D = -0.1; E = 4%; F = -0.1%; G = -13
> Cc1cc(C(=O)Nc2ccc(Br)cc2)cs1
  A = -0.7; B = 27; C = 0.9%; D = /; E = 12%; F = 1.1%; G = 25
> CC(=O)C1(O)C(C)CC2C3CC(F)C4(O)CC(O)CCC4(C)C3CCC21C (centres undefined)
  A = 0.5; B = 41; C = /; D = /; E = /; F = 1.7%; G = /
> CC(C)Cn1cc(C(=O)NCCCOC(C)C)c2c3ccccc3n(C)c2c1=O
  A = -0.5; B = 10; C = 28µM*; D = -3.1; E = 4%; F = 4.9%; G = -5
> Cc1ccc(NC(=O)CN2CCOCC2)c(Br)c1
  A = -0.6; B = 25; C = /; D = -0.9; E = 16%; F = 0.0%; G = -17
> COc1ccc(OC2C(=O)N(Cc3ccc(F)cc3)C2c2ccc(OC)c(OC)c2)cc1 (centres undefined)
  A = 1.6; B = 7; C = -0.7%; D = -2.2; E = 10%; F = /; G = -11
> CSC1=NC(C(Cl)(Cl)Cl)N=C(c2ccc(C)cc2)N1 (centres undefined)
  A = 1.1; B = 11; C = /; D = 1.0; E = -11%; F = 8.9%; G = 20
> CCn1c(C)nc2cc(C(=O)N/N=C(\C)c3ccc(N4CCOCC4)cc3)ccc21
  A = 0.4; B = 0; C = 0.1%; D = -5.9; E = 15%; F = -1.7%; G = 19
> N/C(=N\OC(=O)c1ccco1)c1ccc(Cl)cc1
  A = -0.4; B = -1; C = /; D = 1.2; E = -1%; F = 1.3%; G = -2
> O=C(Cn1cc([N+](=O)[O-])cn1)NCc1ccccc1
  A = -0.8; B = 19; C = 0.0%; D = 5.8; E = 4%; F = 0.0%; G = -25
> CCOC(=O)N1CCC(N(CCN(C)C)C(=S)Nc2cc(Cl)ccc2C)CC1
  A = 0.2; B = 13; C = /; D = 0.1; E = -3%; F = -2.7%; G = -13
> CC(Oc1ccc2c(-c3ccccc3)cc(=O)oc2c1)C(=O)NCc1ccccn1 (centres undefined)
  A = /; B = /; C = -4.8%; D = -4.1; E = 21%; F = 2.0%; G = 8
> COc1ccc(CC(=O)Nc2ccc(-c3nnc(-c4ccccc4)o3)cc2)cc1OC
  A = -0.7; B = 2; C = ?; D = 4.8; E = -7%; F = 2.6%[38.3 µM]; G = /
> Cc1ccc(C)c(N(C)S(=O)(=O)c2ccc3[nH]cc(C(=O)NCCN4CCOCC4)c(=O)c3c2)c1
  A = 0.4; B = -13; C = 18µM*; D = -0.7; E = 1%; F = ?; G = 5
> COc1cccc(C(=O)NCCCNC(=O)c2cccc(OC)c2)c1
  A = 0.6; B = 23; C = /; D = -2.7; E = 18%; F = -0.5%; G = 8
> CCc1cccc(C)c1NC(=O)COC(=O)Cn1c(C)csc1=O
  A = 1.1; B = -13; C = /; D = /; E = /; F = 2.8%; G = -8
> O=S(=O)(Nc1ccc2c(c1)oc1ccccc12)N1CCCC1
  A = 0.4; B = -13; C = ?; D = 0.9; E = -5%; F = -1.8%; G = -5
> C/C(N)=C(/C#N)C(=O)COC(=O)c1cc(-c2ccc(C)cc2)nc2ccccc12
  A = 0.0; B = 7; C = -8.9%; D = 5.2; E = 14%; F = 0.7%; G = -10
> COC(=O)Nc1ccc(S(=O)(=O)Nc2cc(C(F)(F)F)c[nH]c2=O)cc1
  A = -1.6; B = -23; C = 0.3%; D = 2.0; E = -17%; F = 5.8%; G = ?
> COc1ccccc1-c1noc(CCC(=O)Nc2ccccc2Cl)n1
  A = 0.3; B = 5; C = -0.1%; D = -0.8; E = 10µM*; F = -2.7%[38.3 µM]; G = 6
> COC(=O)Cn1ncn2cccc2c1=O
  A = -0.8; B = 9; C = ?; D = -1.8; E = 10%; F = -0.3%; G = 2
> O=S(=O)(Cc1ccccc1)N1CCCCC1
  A = -0.2; B = -9; C = -0.5%; D = 0.7; E = -25%; F = -0.9%; G = -3
> COc1ccc2c(c1)OC[C@H]1[C@H]2N2C(=O)c3cc(Cl)ccc3NC(=O)[C@@]2(C)[C@H]1c1ccccc1
  A = -0.8; B = -9; C = -15%; D = /; E = /; F = 0.7%; G = -27
> COc1ccc(CN2C(=O)c3ccccc3C(/C=N\OCc3ccc(F)cc3)C2=O)cc1 (centres undefined)
  A = -0.6; B = 3; C = -23%; D = 14; E = 24%; F = ?; G = -9
> COc1ccc(C(=O)N(c2c(C)cccc2C)C(COC(C)=O)COC(C)=O)cc1
  A = -1.0; B = /; C = -0.5%; D = /; E = /; F = -0.8%; G = /

# Retrieved one by one from above, 4 records:
# Abbreviations – A = TRPML1 agonist; B = TRPML1 inh; C = ClpP mod; D = Menin-MLL FL inh; E = Sfp PPTase inh; F = PINK1 modulator; G = TRPV1 potentiator
> C/C(N)=C(/C#N)C(=O)COC(=O)c1cc(-c2ccc(C)cc2)nc2ccccc12
  A = 0.0; B = 7; C = -8.9%; D = 5.2; E = 14%; F = 0.7%; G = -10
> CC(=O)C1(O)C(C)CC2C3CC(F)C4(O)CC(O)CCC4(C)C3CCC21C (centres undefined)
  A = 0.5; B = 41; C = /; D = /; E = /; F = 1.7%; G = /
> CC(C)Cn1cc(C(=O)NCCCOC(C)C)c2c3ccccc3n(C)c2c1=O
  A = -0.5; B = 10; C = 28µM*; D = -3.1; E = 4%; F = 4.9%; G = -5
> O=S(=O)(Nc1ccc2c(c1)oc1ccccc12)N1CCCC1
  A = 0.4; B = -13; C = ?; D = 0.9; E = -5%; F = -1.8%; G = -5
